Screens as filed in PubChem BioAssay.
miR-21 FLuc: qHTS Assay for Modulators of miRNAs and/orActivators of miR-21; HeLa miR-21 FLuc reporter, luciferase, 48 h; Potency, µM (titrated, usually from 38.3 µM), for inactives: top-dose reporter change, positive = more light; 340,000 tested, under 10 active; active = well fitted rising curve with a large enough effect; inconclusive = small, poorly fitted or top-dose-only effect; inactive = no such curve, though single readings can be large or run the other way;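 note: % of control where 0% means no effect; miR-21 action dims this reporter so a rising signal means less miR-21 action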
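HeLa cells stably expressing CMV-driven firefly luciferase with a downstream miR-21 binding sequence, endogenously expressing miR-21, were treated with titrations (up to about 40uM final) for 48 hours at 37 degree Celsius. Luciferase luminescence was read after lysis.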
Rango complex inh: qHTS Assay for Inhibitors of Rango (Ran-regulated importin-beta cargo) - Importin beta complex formation | Rango CFP/YFP FRET sensor + importin beta, 45 min | Potency, µM (highest dose often 92.2 µM), for inactives: top-dose inhibition of complex formation | 340,000 compounds, 0.031% hits; active = rising FRET ratio curve, often small or poorly fitted; inconclusive = mostly compound fluorescence or quenching in the first reads; inactive = flat curves in all reads;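 note: potency is the fitted concentration of half-maximal effect; 0% = DMSO wells and 100% = buffer wells lacking importin beta; nearly all actives have a fitted effect of over 15% in size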
Target sequence (Q14974 whole entry, looked up): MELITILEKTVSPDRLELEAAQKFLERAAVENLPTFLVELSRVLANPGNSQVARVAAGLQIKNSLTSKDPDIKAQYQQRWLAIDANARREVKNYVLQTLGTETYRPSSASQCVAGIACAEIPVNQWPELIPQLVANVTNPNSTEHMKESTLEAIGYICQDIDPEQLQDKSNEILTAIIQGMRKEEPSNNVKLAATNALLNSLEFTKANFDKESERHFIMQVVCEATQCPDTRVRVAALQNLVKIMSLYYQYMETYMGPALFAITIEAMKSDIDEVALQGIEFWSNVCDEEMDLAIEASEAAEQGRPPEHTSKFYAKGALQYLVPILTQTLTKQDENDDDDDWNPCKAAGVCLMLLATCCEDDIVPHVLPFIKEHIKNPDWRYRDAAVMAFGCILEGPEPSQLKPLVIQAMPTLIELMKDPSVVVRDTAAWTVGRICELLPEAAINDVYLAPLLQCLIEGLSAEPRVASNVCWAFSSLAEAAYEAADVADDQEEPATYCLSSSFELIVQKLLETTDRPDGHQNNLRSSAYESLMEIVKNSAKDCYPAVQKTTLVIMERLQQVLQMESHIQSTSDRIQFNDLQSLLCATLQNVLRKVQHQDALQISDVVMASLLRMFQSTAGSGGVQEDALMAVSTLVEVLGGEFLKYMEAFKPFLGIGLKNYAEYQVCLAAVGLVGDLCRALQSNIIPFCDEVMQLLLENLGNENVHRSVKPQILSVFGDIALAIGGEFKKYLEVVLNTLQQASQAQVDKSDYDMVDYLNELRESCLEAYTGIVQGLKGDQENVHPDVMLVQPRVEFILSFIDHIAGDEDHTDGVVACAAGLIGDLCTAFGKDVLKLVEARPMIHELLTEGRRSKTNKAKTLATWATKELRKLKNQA
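FRET biosensor (snurportin 1 IBB flanked by EYFP and cerulean), 50 nM, with compound 5 min, then 0.125 microM importin beta in PBS, 1 mM DTT, 0.02% Tween-20, 0.1% BSA. CFP/YFP ratio read after 45 min at room temperature; pre-read flags interference.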
GLA inh pH 4.5: qHTS Assay for Inhibitors of Human alpha-Galactosidase at pH 4.5 | AID 1467, 2008 | activity change, negative = inhibition, % at 105 µM | 230,000 tested, under 10 active | Alpha-galactosidase A (Homo sapiens), P06280 | purified enzyme, 4-MU-alpha-Gal fluorescence, pH 4.5; inconclusive = small, poorly fitted or top-dose-only inhibition, or a rising curve; inactive = flat fitted curve, though single readings scatter; no compound was filed as active;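 note: 0% = full activity with enzyme and -100% = basal without enzyme; dose as in the result columns while the protocol names 77 µM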
Rango dissoc inh: qHTS Assay for Inhibitors of RanGTP induced Rango (Ran-regulated importin-beta cargo) - Importin beta complex dissociation | Potency, µM (series often up to 46.1 µM), for inactives: at the highest dose activity change, negative = inhibition | AID 540253, 2011 | 340,000 compounds, 0.071% hits | Biochemical FRET Rango-importin beta, RanGTP-induced dissociation; active means falling FRET ratio curve, often poorly fitted, with flat reads before Ran was added; inconclusive means other falling curves, or compound fluorescence or quenching; inactive means flat or rising ratio curve;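 note: potency is the fitted concentration of half-maximal effect; % of control where 0% means no effect; nearly all actives have a fitted effect of over 45% in size; -100% = wells without RanGTP and RCC1; the record marks most hits as doubtful in a second field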
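Compounds sat 5 min at room temperature with 0.1 uM Rango biosensor plus 0.25 uM importin beta, then FRET pre-read. RanGTP-RCC1 (0.6 uM Ran, 2mM GTP, 0.2 uM RCC1) added for 45 min, and the CFP/YFP post-read measured blocked complex dissociation.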
Numbers without * were called inactive; u = inconclusive; x = not tested or not shown; & = joins results of further samples.

SMILES,miR-21 FLuc,Rango complex inh,GLA inh pH 4.5,Rango dissoc inh
Cc1ccc(C(=O)N/C(=C\c2cccs2)C(=O)NCCc2ccccn2)cc1C,-1.8%,-7.1%,-1.4,3.4%
CCCNC(=O)c1ccc(N2CCC3(CC2)CC(c2cccc(Br)c2)=NO3)c(NC(=O)c2ccccc2)c1,x,1.2%,x,19.4%
COc1cccc(CN2CCN(CCc3ccccc3)C(CCO)C2)c1OC (stereo unspecified),-13.0%,-0.1%,1.3,-7.6%
COc1ccc(NC(=O)NNC(=O)c2cc3ccccc3cc2O)cc1,-6.7%,u,x,u
CCOC(=O)c1ccc(N2CCN(c3ccccc3F)CC2)c(NC(=O)Nc2cccc(OC)c2)c1,u,u,u,0.4%
Cc1ccccc1SCC(=O)OCC(=O)NCCNC(=O)COC(=O)CSc1ccccc1C,x,-3.6%,x,-3.9%
COC(=O)C(CCSC)NC(=O)c1cc2c(n(-c3ccccc3)c1=O)CC(C)(C)CC2=O (stereo unspecified),-7.3%&-8.5%,0.5%,15.6,0.6%
O=C(CN1C(=O)NC2(CCCC2)C1=O)Nc1ccc(OC(F)(F)F)cc1,-18.6%,-1.0%,x,-6.6%
Cc1cc(C)c(S(=O)(=O)Nc2ccc3[nH]c(=O)[nH]c3c2)c(C)c1,8.2%,u,1.0,-7.3%
COc1cc2ccccc2cc1C(=O)N/N=C/c1cccnc1,11.4%,0.4%,x,-3.1%
Cc1ccc(NC(CNS(=O)(=O)c2ccc(Cl)cc2)c2ccccc2)cc1 (stereo unspecified),9.2%&6.4%,0.4%,-10.7,0.3%
O=C(O/N=C(\c1ccccc1)c1ccccn1)c1cccc2ccccc12,-9.6%,3.4%,-1.5,-3.2%
COc1ccc(Br)cc1C1CC(=O)N2CN(Cc3ccccc3)CSC2=C1C#N (stereo unspecified),-5.9%,-3.5%,-3.9,-11.1%
O=C(COC(=O)c1ccc(Cl)cc1O)Nc1cccnc1Cl,-15.6%,3.3%,4.7,1.4%
CC12CCCC(CC(=O)O)(C1)NC(=O)C2 (stereo unspecified),x,2.1%,x,7.0%
Cc1ccccc1C(=O)Nc1ccc(C(=O)N/N=C/c2ccccn2)cc1,-2.8%,-0.8%,x,-17.3%
Nc1nnc(SCC(=O)Nc2cccc(S(=O)(=O)N3CCOCC3)c2)s1,x,0.3%,x,-19.3%
Clc1ccc(OCCCc2nc(-c3ccncc3)no2)c(Cl)c1,-6.7%,-0.8%,-23.9,-0.7%
Fc1cccc(/C=N/N=C/c2cccc(F)c2)c1,-18.4%,-0.3%,-1.4&0.1,8.4%
COc1ccc(OC)c(S(=O)(=O)N2CCN(Cc3ccccc3)CC2)c1,-4.1%,-0.8%,x,-16.0%

The list goes on.
SMILES,miR-21 FLuc,Rango complex inh,GLA inh pH 4.5,Rango dissoc inh
CC/C(=N\O)c1c(O)c2c(n(-c3ccccc3)c1=O)CCCC2,-12.6%,0.0%,0.5,3.2%
CN(Cc1ccccc1)c1ccc(C(CC(N)=O)NC(=O)c2ccccc2)cc1[N+](=O)[O-] (stereo unspecified),15.6%,1.1%,x,12.5%
Cc1cc(NCCN2CCOCC2)c2ccc3ccccc3c2n1,4.9%,-2.9%,-4.4,9.3%
COc1ccc(OC2C(=O)N(Cc3ccc(F)cc3)C2c2cc(OC)c(OC)c(OC)c2)cc1 (stereo unspecified),1.5%,0.6%,5.2,-10.9%
O=C(c1ccco1)N1CCN(c2ncnc3c(-c4ccccc4)nsc23)CC1,-32.3%,u,-3.3,-12.8%
COc1ccc([C@H]2CC(=O)C=C(c3ccnc4ccc(Cl)cc34)C2)cc1,x,0.1%,x,11.0%
O=C(CN1C(=O)c2ccccc2C1=O)N1CCN(c2nnc(-c3ccccc3)c3ccccc23)CC1,2.3%,-4.6%,-4.0,8.6%
COc1ccccc1C1=CN(Cc2ccccc2)CCC1=O,x,1.4%,x,-6.9%
Cc1ccc(C(=O)O)cc1S(=O)(=O)Nc1ccccc1C(=O)NC1CC1,x,1.3%,x,-12.6%
COc1cc(C(=O)OCC(=O)N2CCCC2)cc2c1OCCO2,x,-0.4%,x,9.6%
CCOC(=O)C(C(=O)Nc1nc2ccccc2s1)C1CCCCC1 (stereo unspecified),-13.0%,-1.3%,-18.3,-1.8%
COc1ccccc1N1CCN(C(=O)C2CCCN(S(=O)(=O)c3ccc4c(c3)oc(=O)n4C)C2)CC1 (stereo unspecified),9.8%&23.1%,0.6%,x,-15.5%
COc1ccc2nc(NC(=O)c3cccc(N4C(=O)CCC4=O)c3)sc2c1,x,2.4%,x,-18.1%
COc1ccc(-c2csc(NC(=O)CSc3ccc(Br)cc3)n2)c(OC)c1,3.1%,1.5%,2.0,2.3%
COc1cc(OC)cc(C(=O)Nc2cccc(NC(=O)c3cc(OC)cc(OC)c3)n2)c1,x,-0.3%,x,0.8%
CC(=O)c1cnc(-c2ccccc2)s1,-26.1%,-1.1%,5.0,8.0%
COC(=O)c1[nH]c2ccc(C)cc2c1NC(=O)C(C)N1CCN(C2CCCCC2)CC1 (stereo unspecified),-4.4%,-0.9%,-9.2,-12.6%
CCN(CC)c1ccc2cc(C(=O)Nc3ccc(-n4cnnn4)c(OC)c3)c(=O)oc2c1,-18.1%,x,-4.7,x
CNc1ccc(Cl)cc1C(N)=O,-1.7%,u,23.3,u
CS(=O)(=O)/C(C#N)=C/c1c(-c2ccccc2)nc2n1CCS2,-7.3%,-0.8%,8.5,-2.4%

Going on with the list.
SMILES,miR-21 FLuc,Rango complex inh,GLA inh pH 4.5,Rango dissoc inh
CCc1ccc(CN2CCCC(CNC(=O)c3cccc(OC)c3OC)C2)cc1 (stereo unspecified),-4.7%,u,x,8.9%
O=C(Nc1cccc(C(F)(F)F)c1)c1cncs1,0.5%,-1.7%,x,-4.0%
Cc1ccc(C(C)C)c(OCC(=O)Nc2ccc3c(c2)nc(CN2CCCC2)n3C)c1,21.6%,-1.5%,-2.5,-4.1%
CSc1ncc(CN2CCCC(C(=O)c3ccc(C(C)(C)C)cc3)C2)cn1 (stereo unspecified),-36.8%,-1.7%,-1.2,0.8%
COc1cc(C(=O)NCCC(=O)NCCCN2CCCCC2C)cc(OC)c1OC (stereo unspecified),-3.9%,1.2%,-0.3,2.6%
Cc1cc(CNC(=O)Cc2ccccc2)c2ccccc2n1,-20.5%,-2.0%,-5.9,-2.7%
N/C(=N\OC(=O)CC1CCCCC1)c1ccc(Cl)cc1,-12.1%,-0.6%,x,-5.9%
Cc1ccc(NC(=O)CCC(=O)OCC(=O)c2ccc(Oc3ccc([N+](=O)[O-])cc3)cc2)c(C)c1,-15.7%,-0.6%,1.1,u
O=C(c1ccc2c(c1)OCO2)N1CCN(c2ccccn2)CC1,-0.8%,1.5%,-16.5,2.6%
C=CCn1c(SCC(=O)NC2CCCc3ccccc32)nnc1-c1ccncc1 (stereo unspecified),-1.5%,3.1%,-18.6,12.1%
COCCN(C(=O)c1ccc(N(C)S(=O)(=O)c2ccc(C)cc2)cc1)c1c(N)n(CC(C)C)c(=O)[nH]c1=O,x,2.3%,x,8.2%
CCC1=NC(c2ccc(OC)cc2)N(O)C1(C)C (stereo unspecified),-6.1%,3.1%,3.3,-12.3%
Cc1csc2nc(O)c(C(=O)NCCC3=CCCCC3)c(=O)n12,x,-2.2%,x,6.1%
COc1nc(OC)nc(Oc2ccc(Cl)cc2[N+](=O)[O-])n1,7.8%,-0.1%,-2.1,11.2%
CC(=O)Nc1ccc(S(=O)(=O)N2CCCN(S(=O)(=O)c3ccc(NC(C)=O)cc3)CC2)cc1,0.1%,-1.1%,-8.6,-16.6%
COc1ccc(CNS(=O)(=O)NCc2ccc(C)cc2)cc1,-4.2%,-1.1%,0.7,29.1%
COc1ccc(C(C)(C)C)cc1NC(=O)C1CC(=O)N(C2CCCC2)C1 (stereo unspecified),x,0.2%,x,-10.1%
CCc1cccc(CC)c1NC(=O)COC(=O)CC1c2ccccc2CCN1S(=O)(=O)c1ccccc1 (stereo unspecified),11.6%,4.0%,-0.6,-5.0%
Cc1cc2ncc(C(N)=O)cn2n1,0.1%,2.3%,3.9,17.0%
CCOC(=O)c1ccc(N2C(=O)c3n[nH]c(C)c3C2c2ccc(OC)cc2OC)cc1 (stereo unspecified),4.7%,16.2%,-10.0,-0.1%

More compounds follow.
SMILES,miR-21 FLuc,Rango complex inh,GLA inh pH 4.5,Rango dissoc inh
CCC(C)Cn1c(S(=O)(=O)O)nc2ccccc21 (stereo unspecified),-1.2%,-1.7%,-1.4,6.0%
CC(OC(=O)CN(C)S(=O)(=O)c1ccc(Cl)cc1)C(=O)Nc1ncc(Cl)cc1Cl (stereo unspecified),1.9%,1.6%,-0.3,-12.3%
COC(=O)C1=CNC=C(C(=O)OC)C1c1ccc(Cl)cc1,-3.2%,u,21.5,0.5%
O=C(NCc1cccc(C(F)(F)F)c1)c1ccc2c(c1)OCCO2,-18.3%,6.3%,x,19.2%
CS(=O)(=O)N1CCN(c2ccnc3cc(Cl)ccc23)CC1,-7.9%,-0.2%,-4.3,2.2%
COc1cccc(OC)c1OCC(O)CN1CCN(c2ccc(F)cc2)CC1 (stereo unspecified),-3.3%,u,x,-0.6%
CCN(CC)C(=S)SCC(=O)c1ccc(F)cc1,-48.8%,3.5%,5.3,8.8%
O=C(CN(Cc1cccs1)C(=O)CSc1nnc(COc2ccccc2)o1)NC1CCCCC1,-7.5%,-0.8%,-12.0,-4.1%
C[C@@H]([C@H](O)c1ccccc1)N(C)C(=S)Nc1ccccc1,-0.8%,2.3%,x,1.3%
O=C(COc1ccccc1F)NNC(=O)c1ccc(N2CCCCC2)c([N+](=O)[O-])c1,-2.7%,1.8%,11.4,1.3%
O=C(NCCCN1CCN(Cc2ccccc2)CC1)c1nnc(Cc2c(F)cccc2Cl)o1,-6.8%,3.7%,-3.2,-0.2%
CCC(=O)Nc1nc(=S)ss1,-1.2%,-1.7%,-3.0,-16.0%
COc1ccc(-c2ncc(CN3CCC(CO)(Cc4cccc(OC)c4)CC3)cn2)cc1,13.2%,u,-7.3,u
CCOC(=O)c1c(S(=O)(=O)NCC(=O)Nc2cc(C)ccc2OC)c(C)n(C)c1C,3.4%&-1.8%,-1.2%,x,0.1%
COc1ccc([C@]2(C(C)C)ON(c3ccccc3C(F)(F)F)C2=O)cc1,x,-2.2%,x,-11.5%
OC(COc1ccccc1CNCc1cccnc1)CN1CCc2ccccc2C1 (stereo unspecified),-0.1%,-3.4%,0.9,26.8%
Cc1cc(C)c2c(CC(=O)NCc3ccco3)coc2c1,9.1%,-3.0%,-7.7,-0.2%
CCOC(=O)c1[nH]c(C)c(C(=O)Nc2ccc(C)c(C)c2)c1C,-0.7%,0.1%,2.7,8.7%
COc1nc(N(C#N)CC(N)=O)nc(N2CCCC2)n1,-35.2%,0.6%,2.3,-16.1%
CCOC(=O)c1ccc(NC(=S)N2CCC(O)CC2)cc1,-41.1%,-0.2%,-1.0,-1.0%

Following part
SMILES,miR-21 FLuc,Rango complex inh,GLA inh pH 4.5,Rango dissoc inh
Cc1oc2cc(O)cc(O)c2c(=O)c1-c1ccc2c(c1)OCCCO2,-36.6%,-3.3%,4.8,6.0%
COc1ccc(CNC(=O)c2cc3ccccc3o2)cc1OC,3.8%,-5.8%,x,32.8%
CSCC[C@H](NS(=O)(=O)c1ccc(C)cc1)C(=O)N1CCC(C(=O)N[C@@H](Cc2ccc(O)cc2)C(=O)O)CC1,1.0%,-3.7%,x,3.0%
O=C(C1=C(O)C(=O)N(CC2CCCO2)C1c1cccc(Cl)c1)c1ccco1 (stereo unspecified),0.5%,0.3%,x,1.5%
Cc1ccc(Nc2nc(C)cc(C)c2C(N)=O)cc1,-1.1%,-1.9%,4.6,-11.3%

Not all compounds are listed (hit frequency here may not be typical).
